HTT prom inh: inhibits huntingtin promoter activity. HEK293 HTT promoter firefly luciferase reporter (activity 0% = vehicle and -100% = no light), 24 h. Potency, µM (top dose mostly 57.5 µM), inactives show at the highest dose activity change, negative = inhibition, usual class: inhibitors. hit rate 0.93% among 48,000. AID 1508623; active means well fitted inhibition curve with a large enough effect; inconclusive means small, poorly fitted or top-dose-only effect; inactive means no such curve, though single readings can be large or run the other way; further: nearly all actives have a fitted effect of over 50% in size
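Luminescence was read after Dual-Glo reagent and a 10 min room-temperature incubation. Values were normalized to vehicle (0% activity) and zero RLU (-100% activity). Reporter HEK293 cells had been exposed to compounds (up to 57.5 uM final) for 24 h.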
PMP22 txn: PMP22 gene transcription modulation. S16 Pmp22-F2sN Schwann cells (luciferase reporters placed in the Pmp22 gene), FLuc/NLuc coincidence luminescence, 24 h. Potency, µM (highest dose often 57.5 µM), for the others: at the top dose activity change, negative = inhibition, usual class: inhibitors. hit rate 2% among 43,000. AID 1508649; active = clear falling dose curves in both reporters; inconclusive = both reporters move, but less clearly or upward; inactive = either reporter flat; the % is the NLuc reporter signal; further: on the % scale 0 is the no-effect control and ±100 the full control effect; some results filed as inactive show a strong effect at the top dose
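S16 Schwann cells carrying FLuc/NLuc coincidence reporter in the Pmp22 3' UTR treated with compound 24 h at 37C; FLuc then NLuc luminescence read sequentially by dual-luciferase reagents.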
Numbers without * were called inactive; ? = inconclusive; · = not tested or not shown; & = joins results of further samples; [ ] = another dose, or the depositor's remark. Potency means the concentration at half of the fitted maximal effect.

cpd	Structure	HTT prom inh	PMP22 txn
1	COc1cc(Nc2nc(-c3ccc(OC)c(OC)c3)nc3ccccc23)cc(OC)c1	?	?
2	Cc1cccc(-n2c3nc(=O)[nH]c(=O)c-3cc3c(C)nn(-c4ccccc4)c32)c1C	-8%	-5%
3	Cc1ccc2[nH]cc(C(c3ccccc3)c3cccs3)c2c1 (configuration not stated)	?	4%
4	C[C@H]1[C@H](O)O[C@@H]2O[C@@]3(C)CC[C@@H]4[C@H](C)CC[C@@H]1[C@@]24OO3	?	·
5	CCOc1ccc(-c2nc(CSCC(=O)N3CCN(c4cccc(C(F)(F)F)c4)CC3)c(C)o2)cc1	16µM*	?
6	CCc1ccc2occ(CC(=O)Nc3ccccc3C(F)(F)F)c2c1	-2%	-4%
7	CCN(CC)CCNC(=O)c1cc(-c2ccc(Br)s2)nc2ccccc12	-28%	20µM*
8	CCSc1ncc(Cl)c(C(=O)N2CCN(c3ccccc3OC)CC2)n1	-45%	?
9	Cc1ccc2nc(-c3ccc(NC(=O)c4ccc(S(C)(=O)=O)cc4)cc3)sc2c1	60%[activator]	-11%
10	COC(=O)c1ccc(NC(=O)NCCn2nnc3cc(S(=O)(=O)N(C)C)ccc32)cc1	-21%	?
11	COc1cc(Cl)c(C)cc1NC(=O)c1cnc(N2CCOCC2)c2ccccc12	-2%	-33%
12	CN1CCC[C@@H]1CCO[C@](C)(c1ccccc1)c1ccc(Cl)cc1	-6%	·
13	CC(=O)Nc1nonc1-c1nnc(SCC(=O)Nc2cccc(F)c2)n1-c1ccccc1	-21%	14%
14	CC(C)(C)c1cc(C=O)cc(C(C)(C)C)c1O	2%	·
15	O=C(Nc1cccc(C(F)(F)F)c1)Nc1cccs1	-23%	?
16	COc1ccccc1C(=O)Nc1ccc2nc(N3CCC(C)CC3)cc(C)c2c1	?	?
17	Cc1ccc(Cc2c(C)nc3nc(SCC(=O)NC(C)c4ccccc4)nn3c2C)cc1 (configuration not stated)	?	-9%
18	Cc1ccc(-c2cn(-c3cccc(Cl)c3)c(S(=O)(=O)CC(=O)Nc3cccc(C)c3)n2)cc1	-22%	?
19	Cc1cccc2sc(N(Cc3cccnc3)C(=O)c3ccco3)nc12	-26%	-14%
20	Cc1ccc(C)c(Cn2c(=O)cc(C)c3c(C)nn(C)c32)c1	?	-16%
21	Cc1ccc(S(=O)(=O)N2CCN(Cc3nc4ccc(C)cc4o3)CC2)cc1	-17%	-1%
22	Cc1nc2nc(SCc3ccc(F)cc3Cl)nn2c(C)c1Cc1ccccc1	1%	-46%
23	CC(C)Nc1cccnc1N1CCN(C(=O)c2cc3cc(NS(C)(=O)=O)ccc3[nH]2)CC1	-4%	·
24	Cn1ncc(C(=O)N2CCN(c3ccccc3)CC2)c1C1CCN(C(=O)OC(C)(C)C)CC1	5%	-18%
25	Cc1ccc2cc3cc(C(=O)Nc4ccc(F)cc4Cl)oc3nc2c1	-6%	-2%
26	CCCCNC(=O)c1ccc2c(=O)n(-c3ccccc3)c(=O)[nH]c2c1	-18%	-1%
27	Cn1c(=O)oc2cc(S(=O)(=O)N3CCC(C(=O)N4CCN(c5cccc(Cl)c5)CC4)CC3)ccc21	?	?
28	COc1ccc(CC(=O)Nc2nnc3n2CCS3)cc1	0%	-29%
29	Cc1ccc(CCNC(=O)c2cc3c(=O)oc4ccccc4c3s2)cc1	-4%	-2%
30	CCc1cccc(NC(=O)CSc2n[nH]c(-c3ccccc3Cl)n2)c1	-23%	-5%
31	CCOc1ccc(-c2cc(C(=O)N3CCN(S(=O)(=O)c4cc(Cl)ccc4OC)CC3)[nH]n2)cc1	?	?
32	O=C(Cn1c(=O)n(-c2ccc(F)cc2)c(=O)c2sc3ccccc3c21)N1CCCC1	-8%	-12%
33	CCc1ccc(S(=O)(=O)c2nnn3c2nc(NC(C)C)c2cc(Cl)ccc23)cc1	-10%	-16%
34	CCn1cc(C(=O)Nc2cccc(Cl)c2)c2cc(OC)c(OC)cc2c1=O	-20%	-26%
35	CCOc1ccc(NC(=O)CSc2cn(CCNC(=O)c3ccccc3F)c3ccccc23)cc1	-13%	-27%
36	CCCOc1ccccc1C1Oc2nc(SC)nnc2-c2ccccc2N1C(C)=O (configuration not stated)	-26%	-53%
37	CCCc1nn2c(=O)cc(COC(=O)c3cccc(NC(=O)COc4ccccc4C)c3)nc2s1	23%	?
38	COc1cccc(C2C(C(=O)Nc3cccnc3)=C(C)Nc3nc(SCc4ccccc4)nn32)c1 (configuration not stated)	-2%	-5%
39	Cc1cc(C)cc(NC(=O)C2CCCN2S(=O)(=O)c2ccc3c(c2)CCCC(=O)N3)c1 (configuration not stated)	?	-24%
40	COc1ccc(NC(=O)c2c(-c3ccc(C)cc3)nnc3ccccc23)cc1OC	13%	0%

The final 4 entries of the section before lead into the next.
cpd	Structure	HTT prom inh	PMP22 txn
37	CCCc1nn2c(=O)cc(COC(=O)c3cccc(NC(=O)COc4ccccc4C)c3)nc2s1	23%	?
38	COc1cccc(C2C(C(=O)Nc3cccnc3)=C(C)Nc3nc(SCc4ccccc4)nn32)c1 (configuration not stated)	-2%	-5%
39	Cc1cc(C)cc(NC(=O)C2CCCN2S(=O)(=O)c2ccc3c(c2)CCCC(=O)N3)c1 (configuration not stated)	?	-24%
40	COc1ccc(NC(=O)c2c(-c3ccc(C)cc3)nnc3ccccc23)cc1OC	13%	0%
41	Cc1cccc(N2CCN(C(=O)CN3CCSc4ccccc43)CC2C)c1 (configuration not stated)	?	?
42	CC(=O)c1ccc(NC(=O)CSc2nccn2Cc2ccc3c(c2)OCO3)cc1	-32%	?
43	COc1ccc(C)cc1NC(=O)C(=O)NCCc1sc(-c2ccc(Cl)cc2)nc1C	-8%	-14%
44	Cc1cccc(NC(=O)C2CCN(S(=O)(=O)c3c(C)noc3/C=C/c3ccco3)CC2)c1	?	-23%
45	O=C(CSc1nccn1Cc1ccccc1)NCc1ccc(F)cc1	2%	-19%
46	CCC(=O)N1CCc2cc(S(=O)(=O)NC(CC(C)C)C(=O)NCCc3cccc(C)c3)ccc21 (configuration not stated)	-23%	7%
47	O=C(COc1ccc(F)cc1)Nc1ccc(OCc2cc(=O)n3ccsc3n2)cc1	-5%	-7%
48	COc1ccccc1OCc1nnc(-c2ccccc2)o1	56%[activator]	?
49	CCn1ccc2c(OCC(=O)Nc3ccc(C)c(Cl)c3)cccc2c1=O	?	?
50	COc1ccc2nc3sc(C(=O)Nc4ccccc4F)cc3cc2c1	30%	?
51	Cc1ccc(-n2c(=O)c3c(c4cc(C)ccc4n3C)n(CC(=O)Nc3c(C)cccc3C)c2=O)cc1	-18%	1%
52	CCc1nn(CCCN2CCN(c3cccc(Cl)c3)CC2)c(=O)n1CCOc1ccccc1	?	·
53	COc1ccc(CC(=O)NCCc2sc3nc(-c4ccc(OC)cc4)nn3c2C)cc1	-19%	?
54	CCCn1c(-c2cccc(Br)c2)nc2ccccc21	11%	2%
55	Clc1ccc(N2CCN(c3ncnc4c3nc3n4CCCC3)CC2)cc1	1.4µM*	14µM*
56	Cc1ccccc1OCCSc1nnc(-c2ccc([N+](=O)[O-])cc2)o1	2%	-4%
57	CCOc1ccccc1N(CC)C(=O)Nc1cn(C)c(=O)c2ccccc12	-16%	23%
58	COc1ccc(CC(=O)Nc2cc(-c3nc4cccnc4s3)ccc2C)cc1	47%[activator]	?
59	CCn1ccc2c(OCC(=O)NCc3ccc(F)cc3)cccc2c1=O	-8%	-11%
60	CCOCCCNC(=O)Cn1cc2c(n1)-c1c(oc(C(=O)N3CCCC3)c1C)CC2	-15%	-7%
61	Cc1ccc(CN(C(=O)c2ccc(F)cc2)c2ccccn2)o1	8%	-20%
62	CC(C(=O)O)c1ccc2c(c1)Cc1cccnc1O2 (configuration not stated)	8%	·
63	N#Cc1c(NC(=O)c2cc3nc(-c4ccc(Br)cc4)cc(C(F)(F)F)n3n2)sc2c1CCCC2	-2%	-9%
64	Cc1cc(C)c(NC(=O)c2cc3c(=O)n4ccccc4nc3n2C)c(C)c1	-17%	-48%
65	Cc1cccc(CNC(=O)CSCc2cnn(-c3ccccc3)c2-n2cccc2)c1	-24%	-34%
66	Cc1cccc(N2CCN(c3ncnc4c3nc3n4CCCCC3)CC2)c1C	?	-22%
67	COc1ccc(OC)c(CNC(=O)c2cnc(N(C)C)nc2)c1	-14%	1%
68	COc1ccc(N2CCN(c3csc4ccccc4c3=O)CC2)cc1	5%	-11%
69	CCC(C(=O)NCCc1ccc(Cl)cc1)n1ccc2cc(S(=O)(=O)N3CCCCC3)ccc21 (configuration not stated)	?	?
70	COc1ccc(-c2nnc(C3CCN(C(=O)c4ccccc4F)CC3)o2)cc1	?	?
71	CCOC(=O)CC(NC(=O)c1cc2c(=O)n3cccc(C)c3nc2s1)c1ccc(OCC)c(OC)c1 (configuration not stated)	6%	?
72	Cc1ccc(C(=O)c2oc3ccccc3c2NC(=O)COc2ccc(C(C)C)cc2)cc1	7%	-1%
73	Cc1c(C(=O)OC2CCCCCC2)[nH]c2c1C(=O)CC(c1ccc(N(C)C)cc1)C2 (configuration not stated)	0%	-6%
74	Fc1ccc(CNc2ncnc3c2c(-c2ccccc2)cn3-c2ccccc2)cc1	?	?
75	COc1ccc(S(=O)(=O)c2c(C(=O)c3ccc(C)c(C)c3)cnc3ccc(C)cc23)cc1	?	?
76	COc1ccc(C(=O)NCC(c2cccs2)S(=O)(=O)c2ccc(F)c(C)c2)cc1 (configuration not stated)	-30%	-37%
77	COc1ccccc1OCC(=O)NCc1nc(-c2ccc(Cl)cc2)no1	-17%	-14%
78	Cn1c(=O)c2cc(C(=O)N3CCN(c4cccc(C(F)(F)F)c4)CC3)sc2c2ccccc21	-19%	-16%
79	O=S(=O)(NCCc1nnc2ccc(SCc3cccc(Cl)c3)nn12)c1ccccc1	-21%	?
80	COc1ccc(Cn2c(SCc3ccc(C(=O)NCCc4ccccc4)cc3)nc3cccnc32)cc1	-5%	-31%
81	CCN(CC)C(=O)Cn1c(=O)n(-c2ccc(Cl)cc2)c(=O)c2c3c(sc21)CCC3	0%	4%
82	COc1ccc(CC(=O)N2CCc3c([nH]c4ccccc34)C2c2ccc(SC)cc2)cc1 (configuration not stated)	-25%	7%
83	CCOc1nc(NC(=O)NS(=O)(=O)Oc2ccccc2)nc(-c2ccccc2)n1	38%[activator]	-23%
84	CCOc1ccc(Cn2c(CNS(=O)(=O)c3ccc(C(C)(C)C)cc3)nc3cccnc32)cc1	-18%	9%
85	CCN(CC)CCNC(=O)c1cc(Br)c(N)cc1OC	-11%	·
86	O=C(NCc1ccc(Cl)cc1)c1ccc2c(c1)NC(=O)C(CS(=O)(=O)Cc1ccccc1Cl)N2 (configuration not stated)	?	?
87	COC(=O)c1ccc(NC(=O)N2CCN(c3nnc(C)c4c(C)n(-c5ccccc5)nc34)CC2)cc1	-22%	30%
88	CCCN(CCC)CCCNC(=O)c1cn(C)c2ccc(S(=O)(=O)N3CCOCC3)cc2c1=O	-1%	5%
89	COc1ccc(OCc2nc3c4c(-c5ccccc5)c(-c5ccccc5)oc4ncn3n2)cc1	17%	-33%
90	CCc1ccc(-n2nc(C)c3c(C)cc(=O)n(CC(=O)Nc4ccccc4C(=O)OC)c32)cc1	-3%	-35%
91	CCN(CC)c1ccc(NC(=O)c2cnc3c(-c4ccccc4)c(C)nn3c2C)c(C)c1	-28%	4%
92	Cc1cc(C)cc(N(CC(=O)Nc2ccc(C(F)(F)F)cc2)S(=O)(=O)c2c(C)[nH]c(=O)[nH]c2=O)c1	?	2%
93	Cc1ccc(SCC(=O)Nc2ccc3oc(-c4cccc(Cl)c4)nc3c2)cc1	6%	2%
94	COc1cc(Nc2nc3c(S(=O)(=O)c4ccc(C)c(C)c4)nnn3c3ccsc23)cc(OC)c1	-17%	?
95	CCOc1ccc(CC(=O)Nc2c(C(=O)c3ccc(Cl)cc3)oc3ccccc23)cc1OCC	5%	?
96	COc1ccc(Cn2ccn(Cc3cccc(Cl)c3)c(=O)c2=O)cc1	-23%	-20%
97	COc1cc(OC)c(NC(=O)CSCc2nc(-c3ccc(OC)c(OC)c3)no2)cc1Cl	0%	-4%
98	O=c1c2sc3ccccc3c2n(Cc2ccccc2)c(=O)n1Cc1ccccc1	-12%	-8%
99	Cn1c(=O)oc2cc(S(=O)(=O)CCC(=O)N3CCN(c4cccc(Cl)c4)CC3)ccc21	30%[activator][11.5 µM]	?
100	CCC(O)c1cc2c(cc1NC(=O)c1cccc(Br)c1)OCCO2 (configuration not stated)	-3%	1%

Next section:
cpd	Structure	HTT prom inh	PMP22 txn
101	CS(=O)(=O)N1CCc2cc(C(=O)NCCc3ccccc3)ccc21	47%[activator]	-8%
102	COc1ccc(N2Cc3cccc(C(=O)Nc4cccc(F)c4)c3C2=O)cc1	-4%	-35%
103	CCc1ccccc1NC(=O)CCCn1c(=O)c2cccn2c2ccccc21	-5%	?
104	NCCCCCC(=O)O	1%&11%	·

High-throughput results deposited in PubChem by National Center for Advancing Translational Sciences (NCATS).

Some of the compounds tested. The share of hits here may be higher or lower than overall.
